CSC inhib: cancer stem cell inhibition; cancer stem cell-like cells viability, luminescence; inhibition, % at 7.5 µM; 300,000 tested, 1.1% active; AID 2717;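 active = mean at 75% or more and at least half the replicates too; inconclusive = mean and replicates disagree; tested in HMLE shEcad cells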;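 also: 0% = median of negative and 100% = median of positive control wells; the first replicate is given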
HIV Env fusion: inhibitors of HIV Env-mediated cell fusion. HeLa-JRFL Env/CEM21 cell fusion, luciferase. inhibition, % at 12.3 µM. 360,000 tested, 1.1% active;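 active = mean replicate inhibition score of at least 50 and every replicate individually at or above 50; inconclusive = only one of the two criteria met; inactive = mean below 50 and not all replicates reaching 50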;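 also: 0% = plate neutral controls and 100% = maraviroc near 300 nM; one replicate is shown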
eIF4H FP inh: inhibitors of RNA binding by human eIF4H; Q15056; inhibition, % at 35 µM; AID 2012; eIF4H fluorescence polarization binding assay; 290,000 tested, 0.94% active;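 active = 50% or more with normal probe brightness, or confirmed in later tests; inconclusive = above 50% with abnormal brightness, or retests that disagree; inactive = below 50% or failed in later tests; about a fifth of its hits are not listed in these tables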;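 also: calls also rest on retests at 20 µM and on dose response follow-up; 0% = protein and probe with vehicle and 100% = probe without protein; strong numbers were not always called active; many hits fall short of the cut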
PABP FP inh: blocks human PABP binding to poly(A) RNA; P11940; 290,000 tested, 1% active; fluorescence polarization; inhibition, % at 35 µM;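 active = 50% or more with normal probe brightness, or confirmed in later tests; inconclusive = above 50% with abnormal brightness, or retests that disagree; inactive = below 50% or failed in later tests; about a fifth of its hits are not listed in these tables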;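 also: calls also rest on retests at 20 µM and on dose response follow-up; controls were probe without protein and protein plus probe with vehicle; some compounds called inactive have numbers as strong as hits; many hits fall short of the cut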
Yeast UUG start: yeast start codon fidelity modulation | S. cerevisiae UUG-firefly luciferase reporter, luminescence/redox ratio | activity score, % at 18.7 µM | 350,000 tested, 0.13% active | AID 602363;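 active = replicate mean at a twofold rise or more, about +100% in these data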;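 also: firefly luciferase made from a UUG start codon reports start codon fidelity; reporter light over untreated wells divided by growth signal over untreated wells; some hits fall short of that in this replicate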
MT1-MMP act inh: inhibitors of human MT1-MMP activation; P50281; HT1080 RFP-PRO-GFP cells, GFP/RFP ratio fluorescence, overnight; percent of plate control window, DMSO zero; GFP/RFP ratio change, % at 20 µM; 360,000 tested, 0.061% active; AID 651647;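 active = GFP/RFP ratio change of at least 30% with cell ATP level not reduced by more than half and red fluorescence within 50% of control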; also: strong numbers were not always called active
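Read-out: GFP/RFP fluorescence ratio; Test system: RFP-PRO-GFP reporter HT1080 cells; Compound dosing: single-point 20 µM compound, 1% DMSO; Times: overnight compound exposure at 37 °C.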
Rce1 inhib: inhibitors of yeast Ras-converting enzyme. Q03530. yeast membranes, quenched prenylated peptide cleavage fluorescence. calls only. 290,000 tested, 0.27% active. AID 2563;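 active = fall in fluorescence gain of 50% or more versus controls, with final raw signal at or below 3038400; inconclusive = same 50% fall but final raw signal above 3038400; inactive = fall in fluorescence gain under 50%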;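 also: plate controls were neutral control wells for no effect and wells lacking membranes for full effect; tested at 10 µM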
Target sequence (Q03530 whole entry, looked up): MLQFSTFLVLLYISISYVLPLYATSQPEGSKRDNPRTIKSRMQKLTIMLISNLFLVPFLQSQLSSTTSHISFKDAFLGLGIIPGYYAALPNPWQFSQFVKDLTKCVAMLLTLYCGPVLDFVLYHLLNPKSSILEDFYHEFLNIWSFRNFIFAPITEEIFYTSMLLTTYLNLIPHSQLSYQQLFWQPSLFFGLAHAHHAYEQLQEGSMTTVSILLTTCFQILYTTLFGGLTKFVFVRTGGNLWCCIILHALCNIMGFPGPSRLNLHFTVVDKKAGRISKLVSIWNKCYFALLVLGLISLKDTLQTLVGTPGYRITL
eIF4H FP inh retest: recorded beside eIF4H FP inh, whose call it bears; inhibition, %; compound at 20 µM; confirmation average;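 mean of two retest wells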
PABP FP inh retest: second read-out of PABP FP inh, no call of its own (marks repeat the call); inhibition, %; compound at 20 µM; confirmation repeats;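 mean of two retest wells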
MT1-MMP act inh RFP: second read-out of MT1-MMP act inh, no call of its own (marks repeat the call); RFP signal change, %; measured here: RFP expression control read;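 0 = vehicle wells; hits needed this value within 50% of zero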
* = called active by the depositor; i = inactive; ? = inconclusive; . = no result given; & = joins results of further samples; [ ] = remark or other dose.

SMILES	CSC inhib	HIV Env fusion	eIF4H FP inh	PABP FP inh	Yeast UUG start	MT1-MMP act inh	MT1-MMP act inh RFP	Rce1 inhib	others
COc1ccc(/C=N\NC(=O)c2ccc(F)cc2)cc1COc1cc(F)ccc1[N+](=O)[O-]	0	-8	7	-4	-21	2	-8	i
O=S(=O)(c1ccc(Cl)cc1)N1CCC2(CC1)OCCN2S(=O)(=O)c1cccs1	.	24	.	.	.	0	-8	i
CCOc1ccc(NC(=O)CN(C)C(=O)CCNC(=O)c2ccco2)cc1OCC	-6	.	.	.	11	-4	2	.
O=C(Nc1ccccc1N1CCCCC1)c1cccc([N+](=O)[O-])c1	62	26	-2	-5	.	0	-3	i
O=C(NCCc1ccccc1)c1cc(-c2ccccc2)c(N2CCOCC2)s1	81*	-15	.	.	-8	3	0	i
CSc1ccc(/C=C(/NC(=O)c2ccccc2)C(=O)NCCCn2ccnc2)cc1	-7	-6	-6	-5	-22	4	2	i
c1ccc(-c2nc(NCC3CCCO3)c3ccccc3n2)nc1 (stereo unspecified)	-6	-14	8	0	-35	12	0	i
COc1cc(-c2[nH]nc3c2C(c2ccco2)C(C#N)=C(N)O3)cc(OC)c1OC (stereo unspecified)	3	-4	11	11	.	3	0	i
O=C(NC1CCCCC1)C(c1cccnc1)N(CCc1ccccc1)C(=O)Cc1cccs1 (stereo unspecified)	-5	34	-6	0	.	-2	-1	i
O=C(CSCc1cccc(Cl)c1)N1CCN(Cc2ccc3c(c2)OCO3)CC1	1	8	1	0	-14	1	-3	i
O=C(CCn1nc(-c2ccccc2)c2ccccc2c1=O)N1CCN(c2ccccc2)CC1	5	-204	0	-17	-5	6	-2	i
C/C=C\C(=O)Nc1cccc(C2=NOC3(C2)C[C@H](C(N)=O)N(C(=O)Cc2ccc([N+](=O)[O-])cc2)C3)c1 (stereo partly specified)	-2	6	-6	2	11	3	0	i
CCCCCCNC(=O)N[C@H](C(=O)NCCC[C@H]1CN2C(=NC[C@H]2C)N1CCC(c1ccccc1)c1ccccc1)C(C)O (stereo partly specified)	-3	.	5	-15	.	.	.	.
COc1ccc(CNC(=O)[C@H](C)NC(=O)C2CCN(C(=O)[C@@H](N)CCSC)CC2)cc1	-4	.	-5	5	6	-1	-1	i
COc1cccc(NC(=O)c2ccccc2NS(C)(=O)=O)c1	-2	-35	4	5	5	-1	-2	i
COc1ccc(C(=O)/C=C/C(=O)N(CC(=O)NC2CCCCC2)Cc2ccc(F)cc2)c(O)c1	.	-72	-10	7	-20	-1	-5	i
COCCn1c(SCC(=O)Nc2cc(C)on2)nnc1C(C)C	-2	-4	5	15	-6	1	4	i
CC(C)(/C=N/O)/[N+]([O-])=C/c1ccccc1C(F)(F)F	-8	.	5	-8	.	2	1	i
O=C(O)/C=C\C(=O)Nc1cccc(C(=O)Nc2cccc(O)c2)c1	-12	3	-6	9	.	2	5	i
CC(=O)Nc1cccc2c1OCCO2	.	-12	-2	-6	-36	-1	2	i
CC1(C)N=C(/C=N/O)CN1O	.	.	-3	5	-3	0	3	i
NC(=O)c1nn(-c2ccccc2)c(=O)cc1O	-23	-16	7	1	-10	-5	4	i
CC1(c2ccc(OC(F)F)cc2)NC(=O)N(/N=C/c2c(O)ccc3ccccc23)C1=O (stereo unspecified)	31	1	-7	5	.	2	1	i
Cc1ccc(CNC(=O)c2ccc(CS(=O)(=O)c3ccccc3)o2)cc1	-4	4	0	6	-12	-8	-9	i
CC(Oc1ccc(S(=O)(=O)N2CCCC2)cc1[N+](=O)[O-])C(=O)N(C)c1ccccc1 (stereo unspecified)	-1	0	.	.	0	-3	0	i

Reprinted from the part before: 2 compounds; new compounds follow.
SMILES	CSC inhib	HIV Env fusion	eIF4H FP inh	PABP FP inh	Yeast UUG start	MT1-MMP act inh	MT1-MMP act inh RFP	Rce1 inhib	others
Cc1ccc(CNC(=O)c2ccc(CS(=O)(=O)c3ccccc3)o2)cc1	-4	4	0	6	-12	-8	-9	i
CC(Oc1ccc(S(=O)(=O)N2CCCC2)cc1[N+](=O)[O-])C(=O)N(C)c1ccccc1 (stereo unspecified)	-1	0	.	.	0	-3	0	i
Cc1noc(C)c1NC(=O)Nc1cccc2c1O[C@@H](CN(C)Cc1ccc3c(c1)OCO3)[C@@H](C)CN([C@H](C)CO)C2=O	12	-9[16.7 µM]	.	.	54&1	2	2	.
CN(CC(=O)Nc1ccc(N2CCOCC2)cc1)C(=O)c1ccc(O)c(Cl)c1	.	-19	4	-2	-6	-2	0	i
O=C(NCCCN1CCN(CCCNC(=O)c2cccc([N+](=O)[O-])c2)CC1)c1cccc([N+](=O)[O-])c1	-16	-8	2	-9	.	4	4	i
CC1(C)Cc2c(sc(NC(=O)C(=O)N3CCOCC3)c2C#N)CO1	-13	2	-12	8	0	-1	1	i
CCCCCCNc1nc(NCc2ccco2)nc(OCC)n1	30	-396	2	8	-10	-10	-17	i
O=C(CN(Cc1ccc2c(c1)OCO2)C(=O)CNC(=O)c1ccco1)NC1CCCCC1	-5	-50	-2	-7	11	2	-5	i
NC(=S)Nc1nc2ccccc2s1	-15	-18	8	20	.	4	5	i
COc1cc(/C=N/NC(=O)c2ccc(-n3cccc3)cc2)ccc1O	54	-39	5	10	.	10	1	i
CC(C)(C)SCCNC(=O)Nc1ccccc1	-22	-16	-4	9	.	4	5	i
CC1=C(C(=O)N(C)C)CC(CC(=O)NC(c2ccccc2)c2ccccc2)C(=O)N1Cc1ccc(F)cc1 (stereo unspecified)	.	-24	.	.	78	0	0	.
O=C(Nc1cccc(Cl)c1)Nc1cc(S(=O)(=O)N2CCOCC2)ccc1N1CCCC1	-1	-12	3	-6	.	5	-6	i
CCN=C(NCC)SC1CC(=O)N(c2ccc(OC)cc2)C1=O (stereo unspecified)	-13	.	-2	-4	-16	6	4	i
O=C(CSc1n[nH]c(=O)n1C1CC1)N1N=C(c2ccc(Cl)cc2)CC1c1ccco1 (stereo unspecified)	-4	18	-6	10	.	0	-2	i
O=C1CC(c2c[nH]c3ccccc23)C(=O)N1 (stereo unspecified)	-6	-23	4	-9	-41	-2	3	i
COc1ccc(CNC(=O)COC(=O)/C=C/c2cccs2)cc1	-10	.	-4	-4	-18	0	5	i
Cc1cc(NC(=O)COC(=O)C2CCN(S(=O)(=O)c3ccccc3)CC2)c([N+](=O)[O-])cc1C	-6	.	-5	2	-10	-3	-1	i
O=C(CCc1nc2ccccc2c(=O)[nH]1)Nc1cc(C(F)(F)F)ccc1N1CCOCC1	-9	6	.	.	.	0	0	i
N#CC1=C2N=C(N)c3ccccc3N2C2=C(C(=O)CCC2)C1c1ccc(F)cc1 (stereo unspecified)	-3	16	40	22	-4	-5	-2	i
COc1ccc(C(=O)Nc2nnc(S(=O)(=O)N3CCOCC3)s2)cc1	-10	0	-6	-5	-11	-2	0	i
O=[N+]([O-])c1ccc(C(=S)N2CCC(Cc3ccccc3)CC2)cc1	42	-2	-2	11	-8	-7	-3	i
CCc1ccc2c(c1)/C(=N/OC)C(=O)N2	-11	-17	-9	-3	.	10	3	i
O=C(CC(=O)N/N=C/c1ccccc1)NCc1ccccc1	-6	11	2	-2	.	0	1	i
COc1cc(/C=C2\OC(=O)c3c(OC)cccc32)ccc1O	2	.	9	-5	.	-62	4	i
Cc1cc(OCC(=O)c2ccc(F)cc2)ccc1N1C(=O)CCC1=O	-1	.	2	-7	-6	2	2	i
Cc1ccc(CN2C(=O)N/C(=C/c3cc(C)n(-c4ccccn4)c3C)C2=O)cc1	6	.	?	0	-9	6	-3	i

Following part
SMILES	CSC inhib	HIV Env fusion	eIF4H FP inh	PABP FP inh	Yeast UUG start	MT1-MMP act inh	MT1-MMP act inh RFP	Rce1 inhib	others
NS(=O)(=O)c1ccc(CCNC(=O)c2ccc(C(=O)c3ccccc3)cc2)cc1	-10	4	-3	1	.	2	0	i
Cc1cc(C)c(/C=C(\C#N)C(N)=S)c(C)c1	.	-1	-5	1	.	-2	0	i
O=C(C1CCC(CNS(=O)(=O)c2ccccc2)CC1)N1CCCCC1 (stereo unspecified)	-27	4	2	1	-17	-3	-3	i
C[C@H]1CN([C@@H](C)CO)C(=O)c2cccc(NC(=O)Nc3ccc(C(F)(F)F)cc3)c2O[C@@H]1CN(C)S(=O)(=O)c1ccccc1	.	-106	.	.	-10	-7	-14	.
Cc1ccc(/C=c2\sc3nc(-c4ccccc4Br)nn3c2=O)o1	.	-79	80	43	3	-15	-13	i	eIF4H FP inh retest=-2;PABP FP inh retest=-1
C/C(=N\NC(=O)c1ccccc1)c1c(C)[nH]n(-c2ccccc2)c1=O	58	19	19	-3	-21	1	3	i
Cc1ccccc1NC(=O)Cc1cn(C)c2ccccc12	-1	-19	-8	-16	-5	4	4	i
COCCNC(=O)C1CCCN(C(=O)c2cc(C)nn2C(C)(C)C)CC1 (stereo unspecified)	.	2	.	.	-12	3	9	.
Cc1cnc(C(=O)N(c2ccc(N3CCOCC3)cc2)C2C(=O)Nc3ccccc3N=C2c2ccc3c(c2)OCO3)cn1 (stereo unspecified)	.	21	.	.	0	1	-2	.
COc1ccccc1CN1CCSCC1	-9	.	5	13	.	7	3	i
COc1cccc(NS(=O)(=O)c2ccc3c(c2)NC(=O)C(C)C(=O)N3)c1 (stereo unspecified)	-6	12	-1	1	-7	0	5	i
C=CCNC(=O)C(C#N)c1nc2ccccc2nc1N1CCCCCC1 (stereo unspecified)	-1	.	?	?	.	-19	4	i
CC1(C)CC(=O)C=C(Nc2ccc(C(=O)O)c(O)c2)C1	-18	4	20	18	.	-1	5	i
COc1ccccc1-c1ccc2nnc(SCC(=O)N3CCCC3)n2n1	-3	-1	.	.	-9	1	0	i
O=C(COC(=O)Cc1ccsc1)Nc1cccc(Cl)c1	.	-3	.	.	-1	-2	-1	.
O=C(Nc1cnn(Cc2ccc(F)cc2)c1)c1cc(-c2ccco2)on1	36	4	-7	6	-8	5	-1	i

Grouped by structure, the entries above with fluorine.
SMILES	CSC inhib	HIV Env fusion	eIF4H FP inh	PABP FP inh	Yeast UUG start	MT1-MMP act inh	MT1-MMP act inh RFP	Rce1 inhib	others
COc1ccc(/C=N\NC(=O)c2ccc(F)cc2)cc1COc1cc(F)ccc1[N+](=O)[O-]	0	-8	7	-4	-21	2	-8	i
COc1ccc(C(=O)/C=C/C(=O)N(CC(=O)NC2CCCCC2)Cc2ccc(F)cc2)c(O)c1	.	-72	-10	7	-20	-1	-5	i
CC(C)(/C=N/O)/[N+]([O-])=C/c1ccccc1C(F)(F)F	-8	.	5	-8	.	2	1	i
CC1(c2ccc(OC(F)F)cc2)NC(=O)N(/N=C/c2c(O)ccc3ccccc23)C1=O (stereo unspecified)	31	1	-7	5	.	2	1	i
CC1=C(C(=O)N(C)C)CC(CC(=O)NC(c2ccccc2)c2ccccc2)C(=O)N1Cc1ccc(F)cc1 (stereo unspecified)	.	-24	.	.	78	0	0	.
O=C(CCc1nc2ccccc2c(=O)[nH]1)Nc1cc(C(F)(F)F)ccc1N1CCOCC1	-9	6	.	.	.	0	0	i
N#CC1=C2N=C(N)c3ccccc3N2C2=C(C(=O)CCC2)C1c1ccc(F)cc1 (stereo unspecified)	-3	16	40	22	-4	-5	-2	i
Cc1cc(OCC(=O)c2ccc(F)cc2)ccc1N1C(=O)CCC1=O	-1	.	2	-7	-6	2	2	i
C[C@H]1CN([C@@H](C)CO)C(=O)c2cccc(NC(=O)Nc3ccc(C(F)(F)F)cc3)c2O[C@@H]1CN(C)S(=O)(=O)c1ccccc1	.	-106	.	.	-10	-7	-14	.
O=C(Nc1cnn(Cc2ccc(F)cc2)c1)c1cc(-c2ccco2)on1	36	4	-7	6	-8	5	-1	i

Screening results: PubChem, several laboratories
